# Mtb bLac sens = beta-lactam sensitization of Mtb H37Rv, H37Rv | M. tuberculosis H37Rv growth with meropenem, percent inhibition; hits of this screen are not shown here | inhibition, % at 25 µM | 330,000 compounds, 0.27% hits;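 active = about 74% or more and at least 40 points above the plate without the antibiotic, then above 30% in a dose series; inconclusive = first-round hits that could not be retested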;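 note: growth measured after seven days incubation then overnight dye step; 0% = bacteria only wells and 100% = bacteria with antibiotic; twin plates without the antibiotic show which effects depend on it; some results filed as inactive read as strong as hits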
# Mtb H37Rv = M. tuberculosis H37Rv growth inhibitors, H37Rv strain (AID 1626); M. tuberculosis H37Rv growth inhibition; higher % means a stronger effect; one-dose inhibition, % at 10 µM; IC50 in µM for titrated hits; 220,000 compounds, 0.95% hits;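 active = confirmed in a dose series; inconclusive = inhibition above 80% but not taken into the dose series; inactive = below 80% or under 30% at every dose of the series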;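 note: bacteria incubated seven days before Alamar blue readout; 0% = bacteria only wells and 100% = bacteria with antibiotic wells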
# Arbovirus anti = antivirals against arbovirus infection, primary screen, cell-based, full library, 10K replicate subset; arbovirus infection cell-based antiviral screen; AID 1251, 2008; inhibition, % at 10 µM; 200,000 compounds, 0.37% hits;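 active = inhibition from about 30%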;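 note: bluetongue infection of BSR cells; cell survival read as ATP light after 72 h; 0% = infected wells without compound and 100% = uninfected wells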
# YopH PTP inh = YopH tyrosine phosphatase inhibitors, primary screen, biochemical, fluorescence Ex485/Em525; inhibition, %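 (about 10 µM by stock and volumes)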; 140,000 compounds, 0.16% hits; AID 898, 2007;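 active = inhibition of 50% or more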;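 note: controls were vehicle for no effect and minimum signal wells for full effect; inactives centre near -20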
# RecA splice inh = Mtb RecA intein splicing inhibitors, primary screen, biochemical, fluorescence, HTS; 290,000 compounds, 0.75% hits; AID 2221, 2009; inhibition, %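 (about 9 µM by stock and volumes)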; Protein RecA (Mycobacterium tuberculosis (strain ATCC 25618 / H37Rv)), P9WHJ3; cell-free RecA intein splicing; in the data active = inhibition above about 30%; inconclusive = no clear call, values can overlap the other calls;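 note: 0% = vehicle wells and 100% = reference inhibitor control wells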
# Target sequence (P9WHJ3 whole entry, looked up, canonical isoform): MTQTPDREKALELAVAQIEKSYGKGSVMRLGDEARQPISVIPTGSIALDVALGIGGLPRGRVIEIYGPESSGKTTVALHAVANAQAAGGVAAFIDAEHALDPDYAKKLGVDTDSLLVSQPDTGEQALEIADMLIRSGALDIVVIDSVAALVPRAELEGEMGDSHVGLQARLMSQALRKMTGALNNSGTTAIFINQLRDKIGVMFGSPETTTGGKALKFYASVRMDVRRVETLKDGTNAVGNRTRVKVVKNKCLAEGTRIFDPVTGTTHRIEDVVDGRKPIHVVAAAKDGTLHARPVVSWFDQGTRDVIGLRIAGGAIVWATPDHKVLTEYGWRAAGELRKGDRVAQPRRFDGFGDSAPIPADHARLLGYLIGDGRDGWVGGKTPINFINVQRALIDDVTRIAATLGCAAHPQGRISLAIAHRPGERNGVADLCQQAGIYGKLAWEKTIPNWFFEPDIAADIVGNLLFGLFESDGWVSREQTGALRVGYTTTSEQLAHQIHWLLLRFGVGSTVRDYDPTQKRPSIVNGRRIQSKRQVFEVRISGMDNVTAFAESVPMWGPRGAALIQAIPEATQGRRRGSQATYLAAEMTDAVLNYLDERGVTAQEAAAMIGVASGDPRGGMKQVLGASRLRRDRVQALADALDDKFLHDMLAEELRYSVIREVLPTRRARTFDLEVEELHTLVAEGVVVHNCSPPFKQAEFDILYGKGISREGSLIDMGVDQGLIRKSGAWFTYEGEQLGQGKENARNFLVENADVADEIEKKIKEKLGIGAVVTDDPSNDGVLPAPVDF
# Arbovirus anti repeat = further read-out of Arbovirus anti, marked with its call; inhibition, %; measured here: 10K subset replicate screen; many hits read low in the repeat;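 first of two repeat runs on a subset; 0% = infected and 100% = uninfected wells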
# * marks the source's active call; other numbers are inactive results; ? = inconclusive; / = no result given. The list is partial; the hit share may differ from the screen's.
SMILES,Mtb bLac sens,Mtb H37Rv,Arbovirus anti,YopH PTP inh,RecA splice inh,others
CSCCC(NC(=O)COc1ccccc1)C(=O)NC1CCC(C)CC1 (configuration not stated),-15,/,/,/,0.3,
Cc1cc(C)n(CCCNC(=O)c2ccc(S(=O)(=O)NCc3ccco3)cc2)n1,-6,-5%,2,-26,-1.3,
O=C(N/N=C/c1cn(-c2ccccc2)nc1-c1cc2ccccc2o1)c1cccnc1,4,6%,-19,-26,/,
O=C(Nc1sc2c(c1CN1CCOCC1)CCC2)c1ccc(F)cc1,-8,3%,1,9,-2.4,
O=C(CN1C(=O)/C(=C\c2ccccc2Br)Oc2ccccc21)NCCCN1CCOCC1,8,/,/,/,-3.7,
Cc1ccc(Cn2c(C(C)Nc3nc(C)cs3)nc3cc(Cl)c(Cl)cc32)cc1 (configuration not stated),-7,-7%,/,/,7.8,
Cc1ccc2cccc(SCC(=O)NCc3ccco3)c2n1,9,1%,-1,-17,-0.6,
O=C(Nc1nc2ccccc2[nH]1)c1ccc(Cl)c(S(=O)(=O)N2CCCC2)c1,95,?,-12,6,7.4,
COc1ccc(/C=C/C(=O)NCCCc2ccccc2)cc1,9,9%,-1,-20,3.5,
Cc1nn(-c2ccccc2)c(=O)c2ccccc12,-6,0%,3,/,-1.4,
CCOC(=O)Cc1cc(-c2ccc(O)cc2)nc2ccc3ccccc3c12,2,11%,-1,-6,2.6,
CC(=O)Oc1ccc([C@@H]2COc3c(ccc4c3C=CC(C)(C)O4)C2)c(OC(C)=O)c1,10,-4%,/,/,/,
CCOc1ccc(-n2c(O)cc(=O)[nH]c2=O)cc1,-5,-4%,/,/,0.2,
COC(=O)c1sccc1-c1ccc(/C=N/OC(=O)c2ccccc2)o1,17,-6%,3,-10,2.3,
CC(C)(C)c1ccc(OCC(=O)NNC(=O)C2CCCO2)cc1 (configuration not stated),5,1%,3,/,1.7,
CCOC(=O)c1cnc(SC2CC(=O)N(c3ccc(OC)c(OC)c3)C2=O)nc1N (configuration not stated),-3,-10%,1,-38,1.8,
CC1=CC2=NC(=O)CC(C)(C(=O)N(CC(=O)NC(C)(C)C)C3CCCC3)N2C=C1 (configuration not stated),-5,-10%,2,34,0.3,
CC(=O)c1c(C)[nH]c(C(=O)CSc2nnc(-c3ccc(Cl)cc3)n2CC2CCCO2)c1C (configuration not stated),2,7%,5,-10,0.2,
Cn1nnc2sc3c(c2c1=O)CCCC3,-11,-4%,1,7,-0.5,
CCC(C)n1c(SCC(=O)Nc2ccc3[nH]c(=O)[nH]c3c2)nc2ccccc2c1=O (configuration not stated),-3,/,/,/,-1.1,

# Seven compounds drawn at random from those above, as already listed:
SMILES,Mtb bLac sens,Mtb H37Rv,Arbovirus anti,YopH PTP inh,RecA splice inh,others
CC1=CC2=NC(=O)CC(C)(C(=O)N(CC(=O)NC(C)(C)C)C3CCCC3)N2C=C1 (configuration not stated),-5,-10%,2,34,0.3,
CCOc1ccc(-n2c(O)cc(=O)[nH]c2=O)cc1,-5,-4%,/,/,0.2,
Cn1nnc2sc3c(c2c1=O)CCCC3,-11,-4%,1,7,-0.5,
CCC(C)n1c(SCC(=O)Nc2ccc3[nH]c(=O)[nH]c3c2)nc2ccccc2c1=O (configuration not stated),-3,/,/,/,-1.1,
CC(=O)c1c(C)[nH]c(C(=O)CSc2nnc(-c3ccc(Cl)cc3)n2CC2CCCO2)c1C (configuration not stated),2,7%,5,-10,0.2,
COC(=O)c1sccc1-c1ccc(/C=N/OC(=O)c2ccccc2)o1,17,-6%,3,-10,2.3,
COc1ccc(/C=C/C(=O)NCCCc2ccccc2)cc1,9,9%,-1,-20,3.5,

# Further compounds:
SMILES,Mtb bLac sens,Mtb H37Rv,Arbovirus anti,YopH PTP inh,RecA splice inh,others
C=CCNC(=S)Nc1cc(Cl)ccc1OC,-7,-3%,-4,-22,0.9,
O=P(c1ccccc1)(c1ccccc1)c1cc(S(=O)(=O)O)ccc1O,0,/,/,/,1.7,
Nc1nonc1C(=O)NCCNC(=O)c1ccc(Cl)cc1,-7,/,/,/,1.1,
CCOCCCNC(=O)C(NC(=O)c1ccc2c(c1)OCO2)c1ccccc1 (configuration not stated),4,3%,7,/,-0.4,
Cc1ccc(S(=O)(=O)Oc2ccc(/C=C(/NC(=O)c3ccccc3)C(=O)NC(C)C(=O)O)cc2)cc1 (configuration not stated),-3,-2%,5,/,-2.7,
O=C(Cn1c(C(F)(F)F)nc2ccccc21)N=Nc1c(O)[nH]c2ccc(Br)cc12,-8,-4%,-35,/,0.0,
Cc1nc(NC(=O)CSc2nnnn2Cc2ccccc2)sc1C,-11,-9%,5,-14,1.7,
COc1ccc(OC)c(S(=O)(=O)CC(=O)c2cc3ccc(OC)cc3oc2=O)c1,5,/,/,/,-4.0,
COCCNC(=O)c1cc(OC)c(OC)cc1[N+](=O)[O-],4,-2%,7,/,0.6,
CCc1nc(SCC(=O)NCc2ccc(F)cc2)c2c(=O)n(C)c(=O)n(C)c2n1,-4,/,2,-13,-0.5,
Cc1cc(/C=N/n2cnnc2)c(C)n1-c1ccc(C(=O)O)cc1,-3,-6%,7,-23,-1.3,Arbovirus anti repeat=3
O=c1[nH]nc(Cc2ncc(C(F)(F)F)cc2Cl)c2ccccc12,-7,/,/,/,-1.2,
COc1ccc(C(=O)NC(=S)N(Cc2ccccc2)Cc2ccccc2)cc1,9,13%,-18,-24,10,
CCOc1ccc(NC(=O)CCSc2nnc(C)s2)cc1,4,?,-3,-13,-1.9,
O=C(CN1CCOCC1)N(c1ccccc1)c1ccc2ccccc2c1,1,-2%,-14,-38,11,
Cc1ccc(-n2c(O)c(/C=N/N3CCOCC3)c(=O)[nH]c2=S)cc1,-4,1%,-4,-13,-2.6,
O=C(Cc1ccc(-n2cnnn2)cc1)NC12CC3CC(CC(C3)C1)C2,25,-4%,3,-1,-2.9,
Cc1ccccc1C(=O)Nn1c(C)ccc1C,8,-3%,1,/,10.0,
COc1ccc(N2C(=O)CC(N3CCN(c4nc5ccccc5s4)CC3)C2=O)cc1 (configuration not stated),-2,4%,3,9,2.2,
COc1ccc(CNS(=O)(=O)c2cc3c4c(c2)C(C)C(=O)N4CCC3)cc1 (configuration not stated),-2,/,/,/,-1.7,
CCOC(=O)c1cnc2c(c(C)nn2C)c1Oc1ccc(OC)cc1,1,9%,/,/,0.5,
CN(C)S(=O)(=O)c1ccc(NCC2COc3ccccc3O2)c([N+](=O)[O-])c1 (configuration not stated),-7,11%,-2,-27,-3.2,
NC(=O)c1ccc(Nc2nnc(-c3ccc(O)cc3)c3ccccc23)cc1,7,6%,-2,/,1.1,
Cc1nnc(SCC(=O)NCc2ccccc2)s1,-10,6%,-3,-147,-1.1,Arbovirus anti repeat=3
O=C(CSc1nc2ccccc2o1)N/N=C/c1ccccc1,-6,4%,-9,-28,0.0,
O=C(CC(Nc1ccc(F)cc1)C(=O)O)c1ccccc1 (configuration not stated),?,-6%,-4,4,-0.4,
O=C1C2C(c3ccccc3)CC=CC2[C@H](c2ccc3ccccc3c2)N1Cc1ccccc1 (some centres not stated),0,34%,/,/,4.5,
CCS(=O)(=O)n1nc(NCc2cccc(OC)c2)nc1NCc1cccc(OC)c1,0,12%,4,12,-2.3,
COc1ccc(OCC(=O)Nc2cc(NC(=O)c3ccco3)ccc2OC)cc1,3,/,/,/,-0.7,
C/C(CC(=O)NCc1ccccc1)=N\NC(=O)c1cnccn1,62,7%,-1,-36,-1.3,
Cc1c(C(=O)C(=O)N2CCN(Cc3ccc4c(c3)OCO4)CC2)c2ccccc2n1C,-4,/,/,/,-0.7,
CCOC(=O)N1CCN(c2cc(NCCO)c([N+](=O)[O-])c3nonc23)CC1,9,-2%,22,/,3.6,
CC(O)CNCc1ccccc1C(F)(F)F (configuration not stated),5,-2%,4,/,-2.7,
Cc1nc2ccc(Br)cn2c1C(=O)N/N=C\c1ccc(C(C)C)cc1,-3,/,/,/,-0.3,
Cc1cccc([C@@H]2[C@@H]3C(=O)N(Cc4ccccc4)C(=O)[C@@H]3[C@]3(Cc4ccc(Cl)cc4)C(=O)N(c4ccccc4)C(=O)N23)c1,51,/,/,/,-0.9,
CC(C)(C)c1nnc2sc(SCC(=O)c3ccc4c(c3)OCCO4)nn2c1=O,2,-5%,14,/,1.2,
COc1ccc(-c2ccccc2)cc1NCc1ccc(OC)c(OC)c1,5,-1%,14,-46,5.7,
COC(=O)C1=C(C)N=C2SCCC(=O)N2C1c1ccc(OC(=O)c2ccco2)cc1 (configuration not stated),/,-8%,0,-6,26,
CC1CCN(Cc2c(C(=O)N/N=C/c3ccc(C(C)C)cc3)nnn2-c2nonc2N)CC1,39,/,/,/,-4.0,
CCCc1nnc(NC(=O)CN2C(=O)c3ccccc3S2(=O)=O)s1,-2,1%,4,-11,-1.6,

# Overlap with the part before: four entries, followed by the next part.
SMILES,Mtb bLac sens,Mtb H37Rv,Arbovirus anti,YopH PTP inh,RecA splice inh,others
COc1ccc(-c2ccccc2)cc1NCc1ccc(OC)c(OC)c1,5,-1%,14,-46,5.7,
COC(=O)C1=C(C)N=C2SCCC(=O)N2C1c1ccc(OC(=O)c2ccco2)cc1 (configuration not stated),/,-8%,0,-6,26,
CC1CCN(Cc2c(C(=O)N/N=C/c3ccc(C(C)C)cc3)nnn2-c2nonc2N)CC1,39,/,/,/,-4.0,
CCCc1nnc(NC(=O)CN2C(=O)c3ccccc3S2(=O)=O)s1,-2,1%,4,-11,-1.6,
COC(=O)c1ccccc1C(=O)N1CCCC(CNC(=O)c2ccc(F)cc2)C1 (configuration not stated),2,/,/,/,-3.2,
COc1ccc(-c2ccc(N(C)C)cc2)cc1[C@H]1[C@H]2C=CC[C@@H](C)[C@@H]2C(=O)N1Cc1ccccc1,-3,4%,/,/,1.0,
O=C(NCCC1CCCCN1S(=O)(=O)c1ccccc1)C(=O)NCC1CCCO1 (configuration not stated),-6,/,/,/,-0.8,
Cc1c(CN(C)C)c2c(n1C)C(=O)c1ccc(Br)cc1-2,44,33%,-8,0,2.2,
COc1ccccc1C1CC(=O)NC(C)=C1C(=O)OCC(C)C (configuration not stated),0,-2%,-3,-21,1.7,
CCOc1ccc(C2NC(=O)c3ccccc3O2)cc1OCC (configuration not stated),-1,/,/,/,2.3,
CC1=C(C(=O)OCC(C)C)C(c2ccc(Br)s2)NC(=O)N1 (configuration not stated),0,5%,3,/,2.6,
CC(C)CN=Cc1c(O)c([N+](=O)[O-])cc2oc3c(c12)CCCC3,6,-3%,3,-8,5.1,
O=C(CCn1[nH]c(=O)c2ccccc2c1=O)NCCO,-6,-2%,13,-16,-0.1,Arbovirus anti repeat=2
CCOC(=O)Cc1csc(NC(=O)CSc2nnc(Cc3csc(N)n3)n2C)n1,-1,-9%,-1,-27,-0.5,
CC1(C)CC(=O)C(N=Nc2ccc(OC(F)F)cc2)=C(O)C1,3,1%,-10,/,-2.1,
COCc1cc(CN2CCCC(C(=O)Nc3cccc(-n4cnnn4)c3)C2)ccc1OC (configuration not stated),-12,/,/,/,8.7,
C=CCn1c(=O)c2c(nc(-c3ccc(S(=O)(=O)O)cc3)n2C)n(C)c1=O,2,-1%,/,/,3.0,
COc1ccc(C(=O)Nc2ccc3c(c2)OCCO3)cc1,-5,2%,-4,-35,/,
N=C1CCCN1c1ccccc1O,-3,-8%,/,/,-5.0,
Cn1c(N)c(C(=O)COC(=O)CNS(=O)(=O)c2ccc(Cl)c(Cl)c2)c(=O)n(C)c1=O,-5,-12%,6,-13,0.8,
O=C(NCCOc1nc(N2CCOCC2)nc(N2CCOCC2)n1)Nc1ccc(Cl)cc1,-11,-2%,0,4,-1.7,
CCC(NC(=O)CCc1c(C)c2cc3c(C)c(C)oc3cc2oc1=O)C(=O)N[C@@H](Cc1ccccc1)C(=O)O (some centres not stated),1,/,/,/,1.0,

# Screening data deposited in PubChem BioAssay by several laboratories.
